Yeast UUG start: modulators of yeast start codon fidelity, primary screen, whole organism, S. cerevisiae, single point, plate reader; activity score, % at 18.7 µM; actives 0.13% (n = 350,000); S. cerevisiae UUG-firefly luciferase reporter, luminescence/redox ratio;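 active = replicate mean at a twofold rise or more, about +100% in these data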;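 also: firefly luciferase made from a UUG start codon reports start codon fidelity; reporter light over untreated wells divided by growth signal over untreated wells; some hits fall short of that in this replicate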
Env fusion inh: inhibitors of HIV-1 Env-driven cell-cell fusion, primary screen, HeLa-JRFL effector, CEM21 target cells, luciferase; actives 1.1% (n = 360,000); inhibition, % at 12.3 µM;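 active = mean replicate inhibition score of at least 50 and every replicate individually at or above 50; inconclusive = only one of the two criteria met; inactive = mean below 50 and not all replicates reaching 50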;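 also: 0% = plate neutral controls and 100% = maraviroc near 300 nM; one replicate is shown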
CSC inhib: cancer stem cell viability inhibitors, primary screen, luminescence. actives 1.1% (n = 300,000). cancer stem cell-like cells viability. inhibition, % at 7.5 µM;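 active = mean at 75% or more and at least half the replicates too; inconclusive = mean and replicates disagree; tested in HMLE shEcad cells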;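 also: 0% = median of negative and 100% = median of positive control wells; the first replicate is given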
PABP FP inh: PABP poly(A) RNA binding inhibitors, primary screen, biochemical, fluorescence polarization, uHTS | inhibition, % at 35 µM | actives 1% (n = 290,000) | AID 2014, 2009;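 active = 50% or more with normal probe brightness, or confirmed in later tests; inconclusive = above 50% with abnormal brightness, or retests that disagree; inactive = below 50% or failed in later tests; about a fifth of its hits are not listed in these tables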;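 also: calls also rest on retests at 20 µM and on dose response follow-up; controls were probe without protein and protein plus probe with vehicle; some compounds called inactive have numbers as strong as hits; many hits fall short of the cut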
MT1-MMP act inh: blockers of MT1-MMP proenzyme processing, primary screen, HT1080 RFP-PRO-GFP cells, GFP/RFP fluorescence; GFP/RFP ratio fluorescence, overnight; percent of plate control window, DMSO zero; GFP/RFP ratio change, % at 20 µM; actives 0.061% (n = 360,000); AID 651647, 2012;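 active = GFP/RFP ratio change of at least 30% with cell ATP level not reduced by more than half and red fluorescence within 50% of control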; also: strong numbers were not always called active
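Assay system – RFP-PRO-GFP reporter HT1080 cells · Compound dosing – single dose of 20 µM compound, 1% DMSO final · Incubation – overnight compound exposure at 37 °C · Measure – GFP/RFP fluorescence ratio · Benchmarks – DMSO wells and RFP-L50D-GFP cells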
eIF4H inh: human eIF4H binding inhibitors, primary screen, translation initiation inhibitor project, biochemical, uHTS, fluorescence polarization | Eukaryotic translation initiation factor 4H (Homo sapiens), Q15056 | eIF4H fluorescence polarization binding assay | inhibition, % at 35 µM | actives 0.94% (n = 290,000) | AID 2012, 2009;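 active = 50% or more with normal probe brightness, or confirmed in later tests; inconclusive = above 50% with abnormal brightness, or retests that disagree; inactive = below 50% or failed in later tests; about a fifth of its hits are not listed in these tables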;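 also: calls also rest on retests at 20 µM and on dose response follow-up; 0% = protein and probe with vehicle and 100% = probe without protein; strong numbers were not always called active; many hits fall short of the cut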
Rce1 inhib: yeast Rce1p protease inhibitors, primary screen, biochemical, fluorescence, cell-free homogeneous | actives 0.27% (n = 290,000) | yeast membranes, quenched prenylated peptide cleavage fluorescence | CAAX prenyl protease 2 (Saccharomyces cerevisiae (strain ATCC 204508 / S288c)), Q03530 | calls only;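 active = fall in fluorescence gain of 50% or more versus controls, with final raw signal at or below 3038400; inconclusive = same 50% fall but final raw signal above 3038400; inactive = fall in fluorescence gain under 50%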;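 also: plate controls were neutral control wells for no effect and wells lacking membranes for full effect; tested at 10 µM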
Target sequence (Q03530 whole entry, looked up): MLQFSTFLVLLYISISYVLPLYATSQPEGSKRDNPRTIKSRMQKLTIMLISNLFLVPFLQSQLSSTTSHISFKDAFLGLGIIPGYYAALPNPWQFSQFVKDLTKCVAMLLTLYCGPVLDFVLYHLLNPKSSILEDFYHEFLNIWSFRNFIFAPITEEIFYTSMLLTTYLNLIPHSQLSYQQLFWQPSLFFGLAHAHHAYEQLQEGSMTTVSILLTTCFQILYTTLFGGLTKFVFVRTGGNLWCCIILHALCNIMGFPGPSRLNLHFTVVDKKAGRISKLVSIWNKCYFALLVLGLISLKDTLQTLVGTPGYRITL
PABP FP inh retest: recorded beside PABP FP inh, whose call it bears; inhibition, %; compound at 20 µM; confirmation repeats;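 mean of two retest wells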
MT1-MMP act inh RFP: recorded beside MT1-MMP act inh, whose call it bears; RFP signal change, %; measured here: RFP expression control read;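 0 = vehicle wells; hits needed this value within 50% of zero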
Starred values were filed as active, the others as inactive; i = inactive; ? = inconclusive; . = not tested or not shown; + = active, no number.

SMILES | Yeast UUG start | Env fusion inh | CSC inhib | PABP FP inh | MT1-MMP act inh | MT1-MMP act inh RFP | eIF4H inh | Rce1 inhib | others
COC(=O)CCC(=O)OC1(C)C(=O)C2=CN(C(CO)CO)C(c3ccc(OC)cc3)=CC2=C(Br)C1=O (configuration not stated) | . | -139 | -6 | 35 | . | . | 40 | i
COc1ccc(S(=O)(=O)N2CCCCCC2)cc1C(=O)N(C)Cc1ccccc1F | . | 10 | -4 | . | -5 | -7 | . | i
O=C1c2ccccc2C(=O)N1CCCCN(C(=O)c1ccco1)c1ccc(Cl)cc1 | -7 | . | -17 | -3 | -5 | -4 | -2 | i
COc1ccc(C)cc1NC(=O)c1cccc(C(=O)Nc2cc(C)ccc2OC)n1 | -13 | 1 | 27 | -12 | 0 | 0 | 0 | i
O=C(NC1CCCCC1)C(c1ccccc1)N1CCc2ccccc21 (configuration not stated) | -9 | -9 | 4 | -1 | -1 | -6 | 5 | i
CN(CC(O)COc1ccc(OCC(O)CN(C)C2CCCCC2)cc1)C1CCCCC1 (configuration not stated) | . | . | 4 | 3 | 1 | 1 | 8 | i
CCOc1ccc(OCCC(=O)NNC(=O)c2cc(C)oc2C)cc1 | 3 | 7 | -4 | . | 4 | 0 | . | i
CCCc1cc2c(-c3ccccc3)cc(=O)oc2cc1OCc1ccc(C(=O)O)o1 | . | 2 | 24 | -7 | -2 | -1 | -10 | i
O=C(CC1CCCC1)N1CCN(S(=O)(=O)c2ccc(F)cc2)CC1 | -7 | 8 | -1 | . | -1 | 5 | . | .
O=C(NC1CCCC1)c1ccc(Br)c(S(=O)(=O)N2CCCCC2)c1 | -9 | 3 | -10 | -4 | 7 | 1 | -11 | i
CC(Oc1ccc2ccc(=O)oc2c1)C(=O)NC1CCN(Cc2ccccc2)CC1 (configuration not stated) | -10 | 8 | -5 | -12 | 2 | 2 | -4 | i
CCc1cccc(C)c1NC(=S)NCc1ccc2c(c1)cc(C)n2C | -26 | . | . | 15 | 50 | 62 | 12 | i
COc1cc([N+](=O)[O-])ccc1-c1ccc(/C=N/NC(=O)c2ccccc2O)o1 | . | 2 | . | -2 | . | . | 10 | i
COc1ccc(CNC(=O)C2CCC(=O)N(CCCN3CCCC3=O)C2)cc1 (configuration not stated) | -5 | 9 | -2 | 0 | 3 | 4 | -6 | .
CCCCn1nc(C(=O)Nc2ccc(S(=O)(=O)Nc3ncccn3)cc2)c2ccccc2c1=O | . | 4 | -4 | -4 | -7 | -8 | 0 | i
O=C(NCc1ccccc1Cl)NC(=O)c1ccccc1 | 1 | 14 | 2 | 10 | 4 | 5 | -3 | i
O=C(O)CCCCCNC(=O)/C(=C\c1ccco1)NC(=O)c1ccco1 | -6 | 6 | -4 | 18 | -3 | -1 | 28 | i
Cc1c(/C=C/C(=O)c2ccccc2O)cnn1C | -20 | -41 | -5 | -11 | -9 | -3 | -11 | i
O=S(=O)(Nc1nc2ccccc2s1)c1cnc(Cl)c(Br)c1 | -20 | 5 | 34 | 7 | -9 | -3 | -1 | i
C[C@H]1CN=C(Nc2ccccc2)N1CCC1CCCCC1 | -9 | 18 | 10 | 12 | 0 | 1 | 10 | i
CCC(Sc1nc2cc(OC)c(OC)cc2c(=O)n1Cc1ccco1)C(=O)NCCOC (configuration not stated) | 0 | -126 | 3 | -2 | -3 | 5 | 0 | i
CN(C)CCCn1c(N)c(S(=O)(=O)c2ccccc2)c2nc3ccccc3nc21 | -6 | 7 | -4 | -8 | -48 | 10 | 2 | i
CCOC(=O)C1CCCN(Cc2ccc(OC)cc2OC)C1 (configuration not stated) | -21 | -109 | -10 | 2 | 3 | 6 | 8 | i
Cc1cccc(N2C(=O)SC(N(C)c3ccccc3)C2=O)c1 (configuration not stated) | 2 | . | -2 | -2 | -2 | 3 | 5 | i
O=C(Nc1ccccc1)Nc1ccc2snnc2c1 | -7 | . | -5 | 42 | -4 | -8 | -8 | i
NC1=NC(=O)/C(=C/C=C/c2cccs2)S1 | . | -34 | 7 | . | -1 | 0 | . | i
CCc1c(C)sc(NC(=O)c2cccs2)c1C(N)=O | -4 | . | 1 | 8 | -5 | -4 | -1 | i
c1ccc(CN2CCN(Cc3nnc(-c4ccccc4)o3)CC2)cc1 | . | 5 | 1 | -6 | 0 | 0 | 2 | i
CCn1c(CCc2ccccc2)nc2ccccc21 | -32 | -6 | -7 | 10 | 1 | -1 | -2 | i
Cc1ccc(S(=O)(=O)Nc2ccccc2)cc1C(=O)N1CCCC1 | -27 | -19 | -7 | 7 | -4 | -3 | -5 | i
CCN(CC)c1ccc(/C=c2/sc3nnc(-c4ccccc4C)n3c2=O)cc1 | -15 | . | 1 | 125 | -199 | -1 | ? | i | PABP FP inh retest=44
CCN1CCc2c(C#N)c(N3CCCCC3)nc(N3CCOCC3)c2C1 | -3 | . | 5 | 19 | -9 | 0 | 18 | i
Cc1cccc(CN2CCSCC2)c1 | -1 | 9 | 4 | 1 | -4 | -1 | 9 | i
C=CCc1cccc(OC)c1OCCOCCn1ccnc1 | -8 | . | 6 | 0 | 6 | -1 | 5 | i
COc1cccc2[nH]c(C(=O)NC(C)c3ccccc3)cc12 (configuration not stated) | -6 | -14 | -16 | -3 | -3 | -6 | -7 | +
COc1ccc(NC(=O)Nc2ccccc2C(N)=O)cc1 | . | -27 | -16 | 1 | -2 | -2 | 4 | i
O=C(Nc1nc(OCCN2CCCC2=O)cnc1/C=C\c1ccccc1)c1cc2ccccc2s1 | -11 | 1 | . | . | -14 | -15 | . | .
Cc1ccccc1C(=O)OC1CCN(C)CC1 | -8 | -17 | 12 | 7 | -3 | 1 | -1 | i
CCCCC(=O)N(c1ccc(C(=O)O)cc1)c1nc(-c2ccc(Cl)cc2)c(CC)s1 | . | 15 | 67 | 14 | 13 | -12 | 1 | i
COc1ccc(CCNC(=O)c2cn(C)c3ccc(S(=O)(=O)N4CCOCC4)cc3c2=O)cc1OC | -2 | -8 | 5 | 4 | -4 | 3 | 4 | i
COc1ccc(CN2C(=O)c3ccccc3C(/C=N/OCc3ccc(Cl)cc3)C2=O)cc1 (configuration not stated) | -70 | . | . | -2 | 0 | -3 | -5 | i
O=C1Nc2ccccc2N(O)N1c1cc(-c2cccc(Cl)c2)no1 | . | -83 | -7 | 19 | 6 | 9 | -4 | i
CCOC(=O)N1CCN(C(=O)CN(C)S(=O)(=O)c2ccc3c(c2)C(C)(C)C(=O)N3C)CC1 | . | 11 | 2 | -9 | 0 | 1 | 1 | i
Cc1cccc(NC(=O)c2cc([N+](=O)[O-])ccc2Cl)c1O | -13 | -19 | 7 | 10 | -2 | -3 | -7 | i
Nc1ncnc2c1ncn2[C@@H]1O[C@H](CNCc2c(OCc3ccccc3F)ccc3ccccc23)[C@@H](O)[C@H]1O | -7 | 6 | . | . | -6 | -3 | . | .
CC(O)c1nc2ccccc2n1C(C)c1ccccc1 (configuration not stated) | 9 | 13 | -8 | -11 | -1 | 4 | -8 | i
Nc1nnc(-c2ccncc2)s1 | -16 | 18 | -8 | 1 | 1 | -1 | -2 | +
COC(=O)C(C)n1nc(C)n(-c2ccc(C)cc2)c1=O (configuration not stated) | -21 | -17 | -18 | -4 | 5 | 7 | 0 | i
COc1ccc(/C=C/C(=O)NCC(=O)N=Nc2c(O)[nH]c3ccc([N+](=O)[O-])cc23)cc1 | -5 | 5 | . | 9 | 1 | 1 | 44 | i
CCOc1ccc(NC(=O)C(CC(=O)O)Cc2ccccc2)cc1 (configuration not stated) | . | 6 | 1 | -3 | -10 | 0 | -5 | i
c1ccc(-c2cc3c(ccc4nonc43)nn2)cc1 | -8 | -34 | 4 | -7 | -2 | 0 | -10 | i
CN(C)/C=N/c1cc(=O)[nH]c(=O)n1C | -16 | -2 | -2 | 5 | -2 | 2 | 4 | i
O=C(CCN1C(=O)COc2ccccc21)NCCN1CCN(c2ccccc2F)CC1 | . | . | -17 | -11 | -2 | 2 | 4 | i
Cc1ccc(C(=O)NC2CC(C)(C)NC(C)(C)C2)cc1C | 1 | -75 | -2 | -5 | -2 | 4 | -6 | i
Cc1ccc2c(c1)C(=O)CC1(CCCC1)O2 | -14 | -3 | -6 | 1 | 2 | 4 | 2 | i
Cc1ccc(OCc2nnc(SCC(=O)Nc3nccs3)n2-c2ccccc2)cc1C | -7 | . | -13 | -1 | 3 | 4 | -12 | i
O=C(Cn1ncc2c([nH]c3ccccc32)c1=O)Nc1cccnc1 | 5 | -6 | -7 | 2 | 1 | 1 | -8 | i
CSc1nc(N)nc(C(C)C)n1 | . | 3 | 3 | 6 | 0 | 2 | 0 | i
CCOC(=O)N1CCN(C(=O)CSc2nnc(-c3ccc(Cl)s3)o2)CC1 | . | . | -10 | 18 | . | . | 8 | i
COc1ccccc1N1CCN(CCN2C(=O)C3CCCCN3C2=O)CC1 (configuration not stated) | -10 | 14 | -13 | 6 | 0 | 1 | 0 | i

Ordered by SMILES length (largest number first): eleven of the compounds above
SMILES | Yeast UUG start | Env fusion inh | CSC inhib | PABP FP inh | MT1-MMP act inh | MT1-MMP act inh RFP | eIF4H inh | Rce1 inhib | others
COc1ccc(/C=C/C(=O)NCC(=O)N=Nc2c(O)[nH]c3ccc([N+](=O)[O-])cc23)cc1 | -5 | 5 | . | 9 | 1 | 1 | 44 | i
COc1ccc(CN2C(=O)c3ccccc3C(/C=N/OCc3ccc(Cl)cc3)C2=O)cc1 (configuration not stated) | -70 | . | . | -2 | 0 | -3 | -5 | i
Cc1ccc(OCc2nnc(SCC(=O)Nc3nccs3)n2-c2ccccc2)cc1C | -7 | . | -13 | -1 | 3 | 4 | -12 | i
CCOC(=O)N1CCN(C(=O)CSc2nnc(-c3ccc(Cl)s3)o2)CC1 | . | . | -10 | 18 | . | . | 8 | i
Cc1cccc(NC(=O)c2cc([N+](=O)[O-])ccc2Cl)c1O | -13 | -19 | 7 | 10 | -2 | -3 | -7 | i
O=C(Cn1ncc2c([nH]c3ccccc32)c1=O)Nc1cccnc1 | 5 | -6 | -7 | 2 | 1 | 1 | -8 | i
CCOc1ccc(NC(=O)C(CC(=O)O)Cc2ccccc2)cc1 (configuration not stated) | . | 6 | 1 | -3 | -10 | 0 | -5 | i
COC(=O)C(C)n1nc(C)n(-c2ccc(C)cc2)c1=O (configuration not stated) | -21 | -17 | -18 | -4 | 5 | 7 | 0 | i
c1ccc(-c2cc3c(ccc4nonc43)nn2)cc1 | -8 | -34 | 4 | -7 | -2 | 0 | -10 | i
Cc1ccc2c(c1)C(=O)CC1(CCCC1)O2 | -14 | -3 | -6 | 1 | 2 | 4 | 2 | i
Nc1nnc(-c2ccncc2)s1 | -16 | 18 | -8 | 1 | 1 | -1 | -2 | +

Compound activity as filed in PubChem BioAssay.

Only part of the results is shown; count on the stated rates, not on these rows.
